Six1-Eya2 inh: blocks human Six1 binding to Eya2; AlphaScreen GST-Six1/His-Eya2 binding, biochemical; active compounds read low; control for the full effect not named in the record; activity change, % (concentration not given with the values); 360,000 compounds, 0.56% hits; AID 651725; in the data active = activity change below about -65%; inconclusive = about -30% to -65%; inactive = above about -30%; note: % is set by controls: 0 for no effect and ±100 for the full control effect
Target sequence (O00167 whole entry, looked up): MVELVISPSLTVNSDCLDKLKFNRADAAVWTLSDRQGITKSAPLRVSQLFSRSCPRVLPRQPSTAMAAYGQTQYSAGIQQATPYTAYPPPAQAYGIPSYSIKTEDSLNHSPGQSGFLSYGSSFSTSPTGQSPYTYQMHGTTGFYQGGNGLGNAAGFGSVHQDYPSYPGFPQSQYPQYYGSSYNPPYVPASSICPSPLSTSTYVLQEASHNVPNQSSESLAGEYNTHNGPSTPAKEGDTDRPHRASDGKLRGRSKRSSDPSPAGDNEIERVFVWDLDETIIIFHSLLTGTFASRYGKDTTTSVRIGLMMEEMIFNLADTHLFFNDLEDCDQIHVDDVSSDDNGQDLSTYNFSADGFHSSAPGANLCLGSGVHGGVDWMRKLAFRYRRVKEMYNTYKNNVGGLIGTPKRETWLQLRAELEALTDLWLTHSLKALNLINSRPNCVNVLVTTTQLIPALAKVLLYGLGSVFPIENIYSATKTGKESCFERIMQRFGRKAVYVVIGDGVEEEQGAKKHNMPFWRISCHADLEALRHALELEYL
Target sequence (Q15475 whole entry, looked up): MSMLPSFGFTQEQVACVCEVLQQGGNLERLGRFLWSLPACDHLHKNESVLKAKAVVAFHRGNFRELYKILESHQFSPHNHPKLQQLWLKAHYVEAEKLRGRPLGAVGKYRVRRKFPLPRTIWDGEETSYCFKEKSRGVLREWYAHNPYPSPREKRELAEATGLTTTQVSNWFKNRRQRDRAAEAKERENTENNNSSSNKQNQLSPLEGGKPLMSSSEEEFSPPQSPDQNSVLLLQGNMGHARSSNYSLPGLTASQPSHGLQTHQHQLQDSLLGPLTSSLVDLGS
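Compounds are tested against tagged Six1 and Eya2 proteins bridged by glutathione donor and nickel acceptor beads; after a one-hour incubation at 37 °C without light, AlphaScreen emission is recorded.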
PINK1 expr mod: modulators of PINK1 expression | PINK1 immunofluorescence, high-content cytometry, 24 h | Potency, µM (doses to about 76.6 µM), inactives show top-dose activation (PINK1 increase), most hits filed as activators | 410,000 compounds, 0.2% hits; active = well fitted activation curve with a large enough effect; inconclusive = small, poorly fitted or top-dose-only effect; inactive = flat fitted curve, though single readings scatter; cell line not stated here;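 note: potency is the fitted concentration of half-maximal effect; % of control where 0% means no effect; nearly all actives have a fitted effect of over 65% in size; a mitochondrial uncoupler was the plate control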
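Stable cell line treated 24 h with compounds at 5 concentrations (CCCP controls), then fixed and immunostained for PINK1 plus nuclear and cell stains; PINK1 immunofluorescence quantified by laser-scanning microplate cytometry.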
TRPML1 blocker: human mucolipin-1 channel inhibition; Q9GZU1; TRPML1-inducible cells, Ca2+ dye fluorescence, FDSS; active compounds read low; inhibition of EC80 agonist-evoked calcium signal; activity change, negative = inhibition, % (no concentration beside the values); 390,000 compounds, 0.02% hits; in the data active means activity change below about -50%; inconclusive means about -30% to -50%; inactive means above about -30%;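 note: stimulus is agonist 54-4 at its EC80 concentration; % is set by controls: 0 for no effect and ±100 for the full control effect; compound concentration not given in the record; the text of the record puts the active cut at -80%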
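TRPML1-DL cells, Tet-induced overnight (~16 h, 37 °C) at 1,500 cells/well, were loaded with Ca8 no-wash dye plus quencher for 45-90 min at room temperature. Compounds were pinned during FDSS kinetic reading; agonist 54-4 at EC80 (4 uM final) then added.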
D2 agonist: human D2 receptor agonism in beta-arrestin assay. P14416. DiscoveRx PathHunter D2 beta-arrestin, luminescence, 90 min; 100% = 57 uM dopamine signal. activation, % (concentration not given with the values). 360,000 compounds, 0.084% hits. AID 624465; in the data active = activation above about 40%; inconclusive = about 15% to 40%; inactive = below about 15%; note: the text of the record calls up to 30% inactive
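Agonist mode: compounds alone added to overnight-plated D2 PathHunter cells for 90 min at 37 C, with 57 uM final dopamine (EC100) defining full response. Beta-arrestin recruitment detected by chemiluminescent reagent, read after 1 h at ambient temperature.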
TRPML1 agonist: activates the human TRPML1 channel | Q9GZU1 | TRPML1-expressing cells, Ca2+ dye fluorescence, FDSS; host cell line not named in the record; reference of the full effect not given here | activation, % (concentration not given with the values) | 410,000 compounds, 0.12% hits | AID 624414; in the data active = activation above about 50%; inconclusive = about 30% to 50%; inactive = below about 30%; note: 0% is about no effect; the text of the record puts the active cut at 80%
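Tet-induced TRPML1-DL cells, 1,500 per well, cultured overnight, were loaded with a no-wash Ca2+ dye for 45–90 min. Calcium fluorescence was recorded on the FDSS for 110 s after compound addition, before the EC80 agonist (4 uM 54-4) was added.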
D2 PAM: human D2 receptor positive allosteric modulation. P14416. DiscoveRx D2 beta-arrestin cells, luminescence, 90 min; 100% = 57 uM dopamine signal. potentiation, % (concentration not given with the values). 360,000 compounds, 0.23% hits. AID 624464; active = potentiation of 50% or more; inconclusive = 30% to 50%; inactive = 30% or less;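 note: tested on top of an EC20 dose of dopamine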
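D2 cells co-treated with compound plus 50 nM dopamine (EC20) for 90 min at 37 deg C to detect potentiation. Beta-arrestin recruitment was read as enzyme-fragment luminescence after 1 h at ambient temperature. Full response was set by 57 uM dopamine.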
* = called active by the depositor; ? = inconclusive; . = no result given; & = joins results of further samples; [ ] = another dose, or the depositor's remark.

Compound	Six1-Eya2 inh	PINK1 expr mod	TRPML1 blocker	D2 agonist	TRPML1 agonist	D2 PAM
O=C(NCc1ccc(Cl)cc1)c1ccc2c(c1)NC(=O)C(CS(=O)(=O)Cc1ccccc1Cl)N2 (stereo unspecified)	.	?	-1	.	0.5	.
COc1cc(C2CC(=O)C3=C(C2)Nc2ncnn2C3c2cccs2)cc(OC)c1OC (stereo unspecified)	-3	2.8%	-8	-2.4	-0.8	-9
CCc1cccc(NC(=O)C2CCCN(c3ncnc4onc(-c5ccc(F)cc5)c34)C2)c1 (stereo unspecified)	.	5.7%	30	.	0.4	.
CCN(CC)S(=O)(=O)c1cc(-c2onc(C)c2C)ccc1OC	.	1.6%	22	.	-0.4	.
O=C(COc1ccccc1)N/N=C/c1ccc(O[C@@H]2O[C@H](CO)[C@@H](O)[C@H](O)[C@H]2O)cc1	12	3.6%	8	1.2	-0.8	-15
COc1ccc(C(CC(=O)N2CCOCC2)C(C)C)cc1 (stereo unspecified)	0	1.7%	10	-1.0	-0.6	-10
O=C(O)C1CC=CCC1C(=O)NCc1ccc2c(c1)OCO2 (stereo unspecified)	0	3.7%[38.3 µM]	-4	-0.8	-0.5	-4
Cc1ccc(NCC(=O)N/N=C/c2cc3ccccc3nc2Cl)cc1	-10	3.2%	-11	-2.2	-0.6	-2

Profiles, quoted from the list. Screens in order: Six1-Eya2 inh | PINK1 expr mod | TRPML1 blocker | D2 agonist | TRPML1 agonist | D2 PAM
Cc1ccc(NCC(=O)N/N=C/c2cc3ccccc3nc2Cl)cc1 reads -10 | 3.2% | -11 | -2.2 | -0.6 | -2
O=C(O)C1CC=CCC1C(=O)NCc1ccc2c(c1)OCO2 (stereo unspecified) reads 0 | 3.7%[38.3 µM] | -4 | -0.8 | -0.5 | -4

Next results
Compound	Six1-Eya2 inh	PINK1 expr mod	TRPML1 blocker	D2 agonist	TRPML1 agonist	D2 PAM
COc1ccc(CCNC(=O)COC(=O)c2ccc(OC)cc2OC)cc1	-7	0.9%	1	-3.4	0.5	-24
Cc1ccc(F)cc1N=Cc1c(O)c2ccccc2oc1=O	1	2.1%	1	-2.5	1.4	-3
CCSc1nnc2ccc(-c3ccco3)nn12	6	2.4%	.	0.4	.	-28
Cc1nc2ccc(C(=O)Nc3ccc4nc[nH]c4c3)cc2[nH]1	-22	-1.0%	-2	2.4	0.3	0
COC(=O)[C@@H](c1ccccc1)N(C)S(=O)(=O)c1cccc(S(=O)(=O)N(C)[C@@H](C(=O)OC)c2ccccc2)c1	-12	1.0%	-22	0.4	74*	-7
CCc1nnc(NC(=O)c2cccnc2)s1	-3	0.2%	-1	-3.1	-0.4	-8
CCOP(=O)(Nc1ccc2oc(=O)c3ccccc3c2c1)OCC	-26	0.3%	-1	-1.9	-0.3	13
Cc1cccc(-n2c(O)c(C=Nc3cccc(O)c3)c3ccccc3c2=O)n1	-7	1.7%	.	-1.9	.	11
CC(NC(=O)CC1Nc2ccccc2NC1=O)c1ccccc1 (stereo unspecified)	0	-1.3%	6	-2.8	4.8	-5
CCCCNC(=O)NNc1nc(Cl)cc(C)c1C#N	0	-1.3%	20	2.8	2.8	5
COCCNc1cc(NCCOC)c([N+](=O)[O-])cc1[N+](=O)[O-]	-2	1.4%	-1	-5.3	-1.0	-11
CCOC(=O)Cc1nnc(NC(=O)C23CC4CC(CC(C4)C2)C3)s1	-1	3.6%	-4	0.4	1.4	0
CSc1ccc(CCNS(=O)(=O)c2ccc3c(c2)C(C)(C)C(=O)N3C)cc1	-6	0.1%&-0.4%	9&-18	-0.2	0.2&-0.2	-8
Cc1cc(C)n2cc(CSc3nc4ccccc4[nH]3)nc2n1	-13	-0.7%	2	-1.8	1.6	1
COc1ccc(CCNS(=O)(=O)c2cc(-c3cc(C)no3)ccc2OC)cc1OC	.	-1.5%	18	.	0.0	.
CCc1ccccc1NC(=O)CN(C)C(=O)CSc1nnc(Nc2cccc(C)c2C)s1	5	0.9%	42	-0.7	0.3	-4
CCNC(=S)NNC(=O)c1ccncc1	8	-0.7%	-2	4.6	2.4	11
CCCCOC(=O)/C(C#N)=C/c1ccc(-c2ccc(Br)cc2)o1	.	0.6%	2	.	-0.2	.
O=C(C1CC1)N1CCc2cc(S(=O)(=O)NCCC3=CCCCC3)ccc21	-1	0.0%	-4	-2.7	-1.0	-6
CCOc1ccccc1OC(C)C(=O)Nc1ccc(S(=O)(=O)N2CCCC2)cc1 (stereo unspecified)	-2	1.6%	8	0.5	1.2	14
Cc1ccc(/C=C/c2onc(C)c2S(=O)(=O)N2CCC(C(=O)N3CCC(N(C)C(C)C)CC3)CC2)cc1	.	-0.2%	-23	.	0.9	.
CN(C)C(=S)Oc1ccccc1C1SCCS1	-2	3.0%	-2	-3.7	0.9	-6
O=C(CSc1nnc(-c2ccncc2)n1-c1ccccc1)Nc1ccc(C(=O)O)cc1	33	0.2%	2	-2.6	0.3	-11
CC1=C(C(=O)N(C(C)C)C(C)C)CC(CC(=O)NCCc2ccccn2)C(=O)N1Cc1ccc(C(C)(C)C)cc1 (stereo unspecified)	-2	0.8%	.	-4.5	-0.3	-4
O=C(CN1C2CCCC1CC(NC(=O)c1ccccc1)C2)Nc1nccs1 (stereo unspecified)	1	1.5%	-2	-2.6	-0.9	-19
CCOC(=O)c1cc(C)sc1/N=C/C1C(=O)CC(C)(C)CC1=O	-4	4.4%	-1	-1.4	-0.5	-12
O=C(NCc1ccc(F)cc1)c1cccc2c1C(=O)c1ccc(N3CCC(Cc4ccccc4)CC3)cc1S2(=O)=O	0	-0.9%	6	0.0	4.4	-10
Cc1cc2nnc(SCC(=O)N(C)C3CCS(=O)(=O)C3)n2c2ccccc12 (stereo unspecified)	-1	0.0%	14	-1.4	0.6	-13
COc1ccc(N=C2C(=O)Nc3c(C)cccc32)cc1	3	0.3%	-7	-13	-0.1	-29
O=C(CSc1nnc2c(n1)[nH]c1ccccc12)Nc1ccc(S(=O)(=O)Nc2ncccn2)cc1	-76*	-0.6%	13	-1.2	0.0	-7
CCCCn1nnnc1C(c1ccccc1)N1CCCN(Cc2ccc(F)cc2)CC1 (stereo unspecified)	0	5.2%	.	.	0.1	.
CCOc1ccc(Cl)cc1CSc1n[nH]c(C)n1	2	5.6%	17	8.3	-0.1	-4

Structural class, the entries above with a furan ring, fused or not
Compound	Six1-Eya2 inh	PINK1 expr mod	TRPML1 blocker	D2 agonist	TRPML1 agonist	D2 PAM
CCSc1nnc2ccc(-c3ccco3)nn12	6	2.4%	.	0.4	.	-28
CCCCOC(=O)/C(C#N)=C/c1ccc(-c2ccc(Br)cc2)o1	.	0.6%	2	.	-0.2	.

(cont.)
Compound	Six1-Eya2 inh	PINK1 expr mod	TRPML1 blocker	D2 agonist	TRPML1 agonist	D2 PAM
COCCn1c(SCC(=O)Nc2ccc(F)cc2)nc2c([nH]c3ccccc32)c1=O	6	1.7%	-11	-0.6	-0.4	-1
Oc1c(C(c2ccc(Cl)cc2Cl)N2CCN(c3ccccc3)CC2)sc2nc(-c3ccco3)nn12 (stereo unspecified)	.	3.7%	-5	.	-0.7	.
O=C(O)c1ccccc1-c1ccccc1C(=O)Nc1cccc(-c2nc3ccccc3o2)c1	6	-2.9%	20	-7.0	0.6	1
CC(C)(C)n1nc2c(c1NC(=O)c1ccc([N+](=O)[O-])cc1)CS(=O)(=O)C2	9	0.3%	-1	12	-0.2	0
CC(C)n1cnc2c(N(C)c3ccccc3)nc(N(CCN(C)C)Cc3ccccc3)nc21	?	-0.8%	-2	2.1	-0.4	-23
CCN(CC(=O)Nc1c(F)cccc1F)C(=O)CNC(=O)COc1ccccc1	7	9.0%	-11	0.8	1.1	-4
Cc1ccc(NC(=O)CCN2C(=O)c3ccccc3C2=O)cc1	15	-1.0%	-21	3.7	-0.4	10
CC(=O)c1ccc(NC(=S)NCC(c2ccco2)N2CCCC2)cc1 (stereo unspecified)	7	3.3%	7	-8.7	0.1	-4
O=C(CSC1=NS(=O)(=O)c2cc(F)ccc2N1)Nc1ccc(F)cc1	14	-1.5%	-3	-1.4	-0.1	6
O=C(NCc1cccnc1)c1cnc2n(c1=O)CCS2	0	2.2%[38.3 µM]	5	-1.4	0.4	-5
CCCCCCn1c(=O)[nH]c2c(c1=O)CCC2	5	3.4%	-18	2.9	0.8	7
COc1ccc(C2c3c(n(C)c4ccccc34)C(=O)N2CC(=O)Nc2cc(Cl)ccc2C)cc1 (stereo unspecified)	.	-0.5%	11	.	3.0	.
COC(=O)c1cc(S(=O)(=O)NCCN2CCN(c3ccccc3F)CC2)c[nH]1	1	-1.0%	-19	-5.2	-0.7	-36
Cn1c(=O)c(C(=O)Nc2ccccc2S(N)(=O)=O)c(O)c2ccccc21	1	-0.5%	.	-1.1	.	-1
COC(=O)c1ccc(N=Cc2c(C(F)(F)F)[nH][nH]c2=O)cc1	14	1.0%	-14	-3.3	0.3	-1
Cc1ccc(-n2nc(C)c3c(C(=O)Nc4ccccc4C(F)(F)F)cc(C)nc32)cc1	.	0.9%	32	.	1.1	.
COc1cccc(N=Nc2c(N)[nH][nH]c2=O)c1	-16	-2.0%	19	-4.2	-0.9	-24
Cn1c(N)c(C(=O)COC(=O)c2ccc(-c3ccccc3)cc2)c(=O)n(C)c1=O	5	8.8%	6	0.3	-0.2	-7
O=C1CC(c2ccc(Cl)c([N+](=O)[O-])c2)c2ccc3ccccc3c2N1 (stereo unspecified)	-25	4.2%	-1	-5.5	2.9	0
Cn1c(SCC(=O)NC2CCCC2)nnc1-c1ccc(S(=O)(=O)N2CCOCC2)cc1	6	4.3%	-4	-2.0	-0.5	-9
O=C1c2ccccc2CC1Sc1nnc(-c2ccncc2)o1 (stereo unspecified)	3	-2.2%	1	1.9	-0.3	11
COc1cccc(N(CC(=O)N2CCCC2)S(C)(=O)=O)c1	5	0.5%	7	1.6	-0.8	-5
COc1ccc(CNC(=O)CCc2c(C)nc3c(c(C)nn3-c3ccccc3)c2C)cc1	.	6.2%	-8	.	2.5	.
Cc1cccc(NC(=O)CCC2CCN(C(=O)c3ccc(C)s3)CC2)c1	22	1.0%	-3	-6.1	3.4	-15
COc1ccc(NC(=S)c2ccccc2)cc1	-5	2.3%	11	-3.3	0.9	-24
CCCOc1ccc(-c2c(C(=O)N/N=C/c3ccc(C)o3)nnn2-c2nonc2N)cc1	-4	3.2%	5	-1.2	3.7	-6
O=C(C=P(c1ccccc1)(c1ccccc1)c1ccccc1)c1ccccc1-c1ccccc1C(=O)C=P(c1ccccc1)(c1ccccc1)c1ccccc1	-3	-2.0%	29	-2.3	1.6	-26
O=C(COc1ccc(Cl)cc1)NCCNC(=O)c1cnccn1	17	-1.1%	10	-0.5	-0.3	-1
O=C(c1cccc2ccccc12)N1CCN(CC2CC=CCC2)CC1 (stereo unspecified)	-4	-5.1%[38.3 µM]	-7	2.8	1.5	-13
CC1(C)Cc2c(cnn2-c2ccccc2)C(NC(=O)CCN2CCCC2=O)C1 (stereo unspecified)	3	-0.8%	21	-1.2	1.5	-9
COc1cc2[nH]c(=O)n(CCC(=O)N3CCC(N4CCCCC4)CC3)c(=O)c2cc1OC	-10	0.4%	6	-2.2	-0.3	1

Screening results as filed in PubChem.
